VDR inhibitor = vitamin D3 receptor (human) inhibition | P11473 | Potency, µM, without a hit: max response, negative = inhibition, most hits filed as inhibitors | 400,000 compounds, 0.93% hits | VDR-SRC2-3 peptide fluorescence polarization, 2 h; active = well fitted inhibition curve with a large enough effect; inconclusive = small, poorly fitted or top-dose-only effect, or another doubt; inactive = no such curve, though single readings can be large or run the other way; also: series mostly up to about 120 µM
Target sequence (P11473 whole entry, looked up): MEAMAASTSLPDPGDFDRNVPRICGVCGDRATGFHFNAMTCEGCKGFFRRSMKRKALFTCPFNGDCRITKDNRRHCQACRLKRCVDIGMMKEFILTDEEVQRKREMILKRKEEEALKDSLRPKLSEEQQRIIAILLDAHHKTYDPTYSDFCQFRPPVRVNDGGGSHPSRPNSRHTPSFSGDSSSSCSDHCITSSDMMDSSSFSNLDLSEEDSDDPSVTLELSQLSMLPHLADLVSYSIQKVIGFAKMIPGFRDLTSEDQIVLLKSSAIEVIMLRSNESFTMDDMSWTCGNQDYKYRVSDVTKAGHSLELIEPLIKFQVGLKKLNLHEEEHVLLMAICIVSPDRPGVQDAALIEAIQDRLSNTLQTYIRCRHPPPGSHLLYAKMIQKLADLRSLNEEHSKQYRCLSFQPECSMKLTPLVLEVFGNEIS
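Signal is fluorescence polarization, reporting how far test compounds block the interaction of VDR with the SRC2-3 coregulator peptide after a 2 h room-temperature incubation.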
Starred values were filed as active, the others as inactive; ? = inconclusive; & = joins results of further samples. % is scaled to controls: 0 for no effect and ±100 for the full control effect; potency is read from the fitted curve at half-maximal effect. Some of the compounds tested; count on the stated rates, not on these rows.

A first look (two entries):
SMILES	VDR inhibitor
C=CCc1c(C)nc(SCC(=C)C)[nH]c1=O	9%
Cc1nn(-c2ccc(Cl)cc2)c(Cl)c1/C=C(\C#N)C(N)=O	?

The listing, repeating the preview:
SMILES	VDR inhibitor
C=CCc1c(C)nc(SCC(=C)C)[nH]c1=O	9%
Cc1nn(-c2ccc(Cl)cc2)c(Cl)c1/C=C(\C#N)C(N)=O	?
CCCNC(=O)Nc1cccc(C(=O)OC)c1	-13%
CCc1ccc(OCCn2c(C3CC(=O)N(Cc4ccc(F)cc4)C3)nc3ccccc32)cc1 (centres undefined)	12%
CCn1c(SCC(=O)c2ccc(Cl)cc2)nnc1-c1cccs1	-26%
COc1ccc(C(C)=O)cc1COC(=O)CNC(=O)c1ccccc1F	-13%
O=P(OC1CCS(=O)(=O)C1)(c1ccccc1)c1ccccc1 (centres undefined)	-2%
COc1ccc(NC(=O)c2ccc(-c3nn(C)c(=O)c4ccccc34)cc2)cc1	-1%
CCC1=NN2C(=N)/C(=C/c3ccc(OS(=O)(=O)c4ccccc4)c(OC)c3)C(=O)N=C2S1	-25%
Cc1c(NS(C)(=O)=O)cccc1-c1nc2cccnc2s1	-12%
CC(=O)Nc1ccc(OCC(O)CNC(C)C)cc1 (centres undefined)	-25%&1%
Cc1ccc(C2=Nc3ccccc3N(C(=O)c3ccccc3)C(C)C2)cc1 (centres undefined)	-2%
COc1ccc(NC(=O)CN(C)C(=O)c2cccc(-n3cccc3)c2)cc1	-2%
O=C(Nc1ncc(Br)s1)C(Cc1ccccc1)n1cccc1 (centres undefined)	-16%
CC(=O)Nc1ccccc1C(=O)C(=O)Nc1cccc(C(=O)NC2CC2)c1	-6%
Cc1cccc(C(C)C)c1NC(=O)CN(C)Cc1cccc(F)c1	0%
CC(OC(=O)CCC(=O)c1ccccc1)C(=O)Nc1ccc(F)cc1 (centres undefined)	6%
Cc1cc(NC(=O)CSc2ccc3nnc(-c4cccnc4)n3n2)no1	-9%
CCCCSc1nc(O)c(Cc2ccccc2)c(=O)[nH]1	4%
COc1ccc(C=O)cc1COc1ccc2c(c1)OCO2	7%
O=C(COC(=O)c1ccc(CNS(=O)(=O)c2ccc(F)c(Cl)c2)cc1)NC1CCCCCCC1	-2%
COC(=O)c1ccccc1NC(=O)c1cn(-c2ccc(C)c(C)c2)c(=O)c2ccccc12	-6%
COc1cc(NC(=O)c2cccs2)c(OC)cc1NC(=O)c1ccco1	-22%
CCOC(=O)N1CCN(C(=O)c2ccc(C#CC3(O)CCCCC3)cc2)CC1	11%
CC(C)c1ncc([N+](=O)[O-])n1C	1%

Further compounds.
SMILES	VDR inhibitor
CCCc1nnc(NC(=O)c2cccs2)s1	-7%
Cc1cc(C(=O)Nc2cccc3c2O[C@@H](CN(C)S(C)(=O)=O)[C@H](C)CN([C@@H](C)CO)C3=O)n(C)n1	-8%
COc1ccccc1NC(=O)Nc1ccc(S(=O)(=O)Nc2onc(C)c2C)cc1	-23%
Nc1ccc(C(=O)O)cc1S(=O)(=O)O	-3%
O=S(=O)(c1ccc(F)cc1)c1nc(-c2ccccc2)oc1N1CCOCC1	4%
CC(=O)NC(C(=O)OCC(=O)N(c1ccccc1)c1ccccc1)C(C)C (centres undefined)	-11%
Cc1cc(C)c2c(n1)sc1c(=O)n(CC(=O)c3ccccc3)cnc12	-12%
O=C(CCn1c(=O)c2ccccc2n(Cc2cccc(F)c2)c1=O)NCc1ccc2c(c1)OCO2	-19%
CCOc1ccccc1N1CCN(C(=O)c2cccs2)CC1	4%
CC(C)C[C@@H](CN1CCCC1CN1C(=S)NC[C@@H]1Cc1ccc(O)cc1)N1C[C@H](Cc2ccc(O)cc2)N(CCc2ccccc2)C1=S (some centres undefined)	-12%
Cc1ccc(S(=O)(=O)N(C(=O)c2ccncc2)c2ccc3oc4c(c3c2)CCCC4)cc1[N+](=O)[O-]	-28%
COc1ccc(-c2nc3cnc(OC)nc3n(Cc3cccs3)c2=O)cc1	1%
COc1ccc(NC(=O)CCN2C(=O)NC3(CCCC3)C2=O)cc1Cl	3%
Cc1c(C(=O)Nc2ccccc2)oc2c1C(=O)CC(C)(C)C2	1%
Cc1ncc([N+](=O)[O-])n1CC(=O)NC1CCCCC1	7%
CCC(c1nnnn1Cc1ccccc1)N(Cc1ccccc1)Cc1cc2cc(C)ccc2[nH]c1=O (centres undefined)	-13%
C/C(=C(\C#N)C(=O)NCCN1CCOCC1)N(C)C	8%
O=C(NCc1ccccc1)c1ccc2nc(N3CCOCC3)sc2c1	2%
O=C(Nc1cccc(F)c1)N1CCC2(CC1)CCN(C(=O)c1cc(C(F)(F)F)cc(C(F)(F)F)c1)CC2	-7%
O=C(Cn1cc(C(=O)C2CC2)c2ccccc21)Nc1ccc(Br)cc1	-10%
Cc1ccc2cccc(Oc3nnnn3-c3ccccc3)c2n1	-11%
C[C@H](CO)N1C[C@H](C)[C@@H](CN(C)Cc2ccc(-c3ccccc3)cc2)Oc2c(NS(=O)(=O)c3ccc(F)cc3)cccc2C1=O	-4%
CCN(CC)c1ccc(NS(=O)(=O)c2ccc(-c3ccc(=O)[nH]n3)o2)c(C)c1	-7%
Clc1ccc(OCc2nnc(-c3ccccc3Br)o2)cc1	-11%
Cc1ncc2c(c1O)COP(=O)(O)OC2	1%

5 entries drawn at random from the list so far, as already listed:
SMILES	VDR inhibitor
C/C(=C(\C#N)C(=O)NCCN1CCOCC1)N(C)C	8%
CCCc1nnc(NC(=O)c2cccs2)s1	-7%
O=C(CCn1c(=O)c2ccccc2n(Cc2cccc(F)c2)c1=O)NCc1ccc2c(c1)OCO2	-19%
COc1ccccc1NC(=O)Nc1ccc(S(=O)(=O)Nc2onc(C)c2C)cc1	-23%
Cc1ncc2c(c1O)COP(=O)(O)OC2	1%

Next section:
SMILES	VDR inhibitor
O=C(O)CCc1ccc(-c2ccc(Br)cc2)n1Cc1ccco1	-11%
N/C(=N\OC(=O)N1CCOCC1)c1ccc(Cl)cc1	-16%
CCOc1ccc(NS(=O)(=O)c2ccc(NC(=S)NC(C)=O)cc2)cc1	14%
C=CCNC(=O)/C(=C/c1ccc(Br)cc1)NC(=O)c1ccccc1OC	-1%
O=C(/C=C/c1cccc([N+](=O)[O-])c1)NCC1CCCO1 (centres undefined)	8%
CCn1cc(S(=O)(=O)c2cccc(Cl)c2)c(=O)c2cc(F)c(N3CCN(C)CC3)cc21	12%
CC1CC(=O)c2ccccc2C1C (centres undefined)	4%
Cc1sc2nc(C)n(/N=C/c3ccc(O)cc3O)c(=O)c2c1C	11%
O=C(Nc1nccc(-c2cccs2)n1)c1cccs1	-3%
COc1ccc(C(CCNCc2ccc(F)cc2)c2ccc(F)cc2)cc1 (centres undefined)	-5%
NC1=NC(c2ccc([N+](=O)[O-])cc2)N(c2ccc(F)cc2)C(N)=N1 (centres undefined)	19%
CC(C)[C@H](NC(=O)[C@@H]1CSC2c3ccccc3C(=O)N21)C(=O)N1CCCCC1 (some centres undefined)	10%
CC(OC(=O)c1ccc2ncsc2c1)C(=O)Nc1cccc(Cl)c1 (centres undefined)	-16%
COc1ccc(C2SCCN2C(=S)Nc2cccc(Cl)c2)cc1 (centres undefined)	-21%
C[C@H]1O[C@H](O[C@H]2[C@H](O[C@@H]3CC[C@@]4(C)C(CC[C@]5(C)C4CC=C4[C@@H]6CC(C)(C)CC[C@]6(C(=O)O[C@@H]6O[C@H](CO)[C@@H](O)[C@H](O)[C@H]6O)CC[C@]45C)C3(C)C)O[C@H](C(=O)O)[C@@H](O)[C@@H]2O)[C@@H](O)[C@@H](O)[C@@H]1O (some centres undefined)	4%
CCCS(=O)(=O)N1CCCC(C(=O)NCCCOC)C1 (centres undefined)	3%
Cc1cc(C)c2c(=O)c3c(oc2c1)C(=O)N(Cc1ccco1)C3c1ccccc1F (centres undefined)	0%
COc1ccc(-c2nnn(CC(=O)N(Cc3ccc(F)cc3)C(C(=O)NC3CCCC3)c3ccc(F)cc3)n2)cc1 (centres undefined)	28%
CCc1nc(SCc2ccccc2)n[nH]1	-25%
O=C(Nc1ccc(Cl)cc1Cl)c1cc(S(=O)(=O)N2CCN(c3ccccc3F)CC2)ccc1F	12%
Fc1ccc(CNC(=S)NCc2ccc(F)cc2)cc1	8%
Cc1ccc(SCC(=O)NC(=O)Nc2ccc3c(c2)OCCO3)c(C)c1	-3%
CCC(C)[C@H](NC(=O)C1CC(=O)N(c2ccc3c(c2)OCO3)C1)C(=O)NC1CCCCC1 (some centres undefined)	-2%
Cn1sc(NC(=O)c2cccc(Cl)c2)nc1=O	16%
CCOC(=O)Cn1c(=N)n(CCOc2ccc3ccccc3c2)c2ccccc21	10%

Additional entries:
SMILES	VDR inhibitor
NS(=O)(=O)c1ccc(NC(=O)/C=C/c2cccs2)cc1	-2%
COc1ccc(-n2c(SCc3cn4c(C)cccc4n3)nc3ccccc3c2=O)cc1OC	-3%
Cc1cccnc1CN1CCN(Cc2nc(Cc3cccc(F)c3)no2)CC1	-3%
COc1cc(C(=O)Nc2cc(S(C)(=O)=O)ccc2Cl)ccc1OCC(=O)N1CCOCC1	-5%
COCCCN1C(=O)/C(=C\c2ccc3c(c2)OCO3)C(C(=O)OC)=C1C	-25%
Cc1ccc(S(=O)(=O)N2CCN(C(=O)COC(=O)c3ccc(Br)o3)CC2)c(C)c1	-3%
C/C(=N/NC(=O)c1ccc2c(c1)OCO2)c1ccc(Br)s1	-2%
O=C1CCCN=C(Nc2ccc(F)c(Cl)c2)S1	-7%
CCOc1ccccc1N(CC(=O)NCCSc1ccccc1)S(C)(=O)=O	-10%
NC(=S)NN=C1CCC(C2CCCCC2)CC1 (centres undefined)	-18%
Cc1ccc(NC(=O)Nc2cccc(F)c2)nc1	7%
CC1CCN(S(=O)(=O)c2ccc3c(c2)N(CC(=O)N(C)Cc2ccccc2)C(=O)CO3)CC1	12%
CCCc1c(C(=O)NNc2ccc(C)cc2)cnn1-c1ccccc1	-22%
CCCCNC(=O)c1onc(CSc2ccc(F)c(F)c2)c1C(=O)NCCCC	-1%
Cc1cc(O)cc(O[C@H]2OC(CO)[C@H](O)[C@@H](O)[C@H]2O)c1 (some centres undefined)	-5%
COc1cccc(-n2c(-c3ccco3)nc3c(cnn3-c3ccc(Cl)cc3)c2=O)c1	-11%
CC(=O)c1ccc(NC(=O)c2ccc(CNc3c(N4CCCC4)c(=O)c3=O)cc2)cc1	5%
CC(C)NC(=O)CN(Cc1ccc(F)cc1)C(=O)CCC(=O)Nc1ccccn1	-1%
Cc1ccc(S(=O)(=O)N2CN(Cc3ccco3)c3nc4ccccc4nc32)cc1	15%
COc1ccc(-c2ccc(OC)c(C3C4C=CCC(C)C4C(=O)N3Cc3ccccc3)c2)cc1OC (centres undefined)	-13%
Cc1ccnc(NC(=O)c2ccc3c(c2)C(=O)N(CC(C)C)C3=O)c1	-3%
CC(Sc1n[nH]c(-c2ccccc2F)n1)C(=O)Nc1ccc(S(N)(=O)=O)cc1 (centres undefined)	-9%
COC(=O)CC1COc2ccccc2N1C(=O)c1ccc(Br)cc1 (centres undefined)	-9%
COc1ccc(C(CNC(=O)C(C)Oc2ccc(Br)cc2)N2CCCCC2)cc1 (centres undefined)	-13%
CCC(=O)c1cn(CC(=O)OC)c2ccccc12	-17%

Next part.
SMILES	VDR inhibitor
Cc1ccccc1NC(=O)CN1C(=O)CSc2ccc(S(=O)(=O)N3CCCCC3)cc21	-14%
O=C(CN1C(=O)C2CCCN2c2ncc(Cl)cc21)NCc1ccc2c(c1)OCO2 (centres undefined)	11%
COc1cccc(CNC(=O)[C@H](CC(C)C)NC(=O)N2CCn3c2nc2ccccc23)c1	14%
Cc1cc(C)n(-c2ccc(C(=O)Nc3ccc(S(=O)(=O)NCc4ccco4)cc3)cc2)n1	-4%
CN1/C(=C\C(=O)Nc2ccc(Cl)cc2)C(C)(C)c2ccccc21	13%
CC(=O)NC(CC(C)C)C(=O)NC(Cc1ccccc1)C(N)=O (centres undefined)	21%
CC1Cn2c(COc3ccccc3)nnc2S1 (centres undefined)	2%
COCCn1c(=NC(=O)CSCC(=O)N2CCOCC2)sc2ccccc21	-6%
COc1ccc(C2=CC(c3cc(Br)ccc3F)n3c(nc4ccccc43)N2)cc1 (centres undefined)	8%
O=C(CCN1CCOCC1)NNC(=O)Nc1cccc([N+](=O)[O-])c1	-5%
C#CCOCCOCCOCCNc1nc(N2CCN(C(=O)[C@H](CCCCN)n3cc(CCC(=O)O)nn3)CC2)nc(N2CCN(C(=O)[C@H](Cc3ccc(O)cc3)n3cc(CCO)nn3)CC2)n1	8%
O=C(C=Cc1ccco1)c1ccc([N+](=O)[O-])cc1	?
CC(C)NC(=S)Nc1cccc2cnccc12	-13%
O=C(NC1=NCCS1)c1cccc2ccccc12	-2%
O=C(NNC(=S)Nc1ccc(C(=O)O)c(O)c1)c1ccncc1	?
Cc1c(NC(=O)CSc2ccccc2F)c(=O)n(-c2ccccc2)n1C	5%
COc1ccc(NC(=O)CSc2nc3ncccc3[nH]2)c(OC)c1	23%
CC(=O)Nc1ccc(-c2nn[nH]n2)cc1	-7%
Cc1ccn2c(=O)nc(SCC(=O)N3CCCCCC3)nc2c1	-3%

7 entries from above, ordered by their value in VDR inhibitor, rising.
SMILES	VDR inhibitor
CC(C)NC(=S)Nc1cccc2cnccc12	-13%
CC(=O)Nc1ccc(-c2nn[nH]n2)cc1	-7%
COCCn1c(=NC(=O)CSCC(=O)N2CCOCC2)sc2ccccc21	-6%
Cc1cc(C)n(-c2ccc(C(=O)Nc3ccc(S(=O)(=O)NCc4ccco4)cc3)cc2)n1	-4%
COc1ccc(C2=CC(c3cc(Br)ccc3F)n3c(nc4ccccc43)N2)cc1 (centres undefined)	8%
CC(=O)NC(CC(C)C)C(=O)NC(Cc1ccccc1)C(N)=O (centres undefined)	21%
COc1ccc(NC(=O)CSc2nc3ncccc3[nH]2)c(OC)c1	23%

Screening results as filed in PubChem BioAssay.
